Screens deposited in PubChem BioAssay by several laboratories.
RGS16-Gao: modulators of RGS16 binding to Galphao, primary screen, biochemical, human proteins, multiplexed bead flow cytometry; binding response (% of control), % at 10 µM; actives 0.38% (n = 220,000); bead-based flow cytometry RGS16-Galphao binding, fluorescence; actives lie on both sides; Regulator of G-protein signaling 16 (Homo sapiens) + Guanine nucleotide-binding protein …; AID 1441, 2008;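 active = below 25% or above 175%, edge rows of some plates excepted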;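 note: Galphao activated by GDP with aluminum fluoride before binding; 100% = wells without compound and 0% = beads without RGS; some results beyond the cut were filed as inactive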
Target sequence (O15492 whole entry, looked up): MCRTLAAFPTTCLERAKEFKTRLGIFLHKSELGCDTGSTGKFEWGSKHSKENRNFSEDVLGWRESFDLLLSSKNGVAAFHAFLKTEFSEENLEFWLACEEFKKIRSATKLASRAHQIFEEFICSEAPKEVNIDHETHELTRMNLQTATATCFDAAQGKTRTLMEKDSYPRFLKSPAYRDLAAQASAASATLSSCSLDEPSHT
Target sequence (P09471 whole entry, looked up): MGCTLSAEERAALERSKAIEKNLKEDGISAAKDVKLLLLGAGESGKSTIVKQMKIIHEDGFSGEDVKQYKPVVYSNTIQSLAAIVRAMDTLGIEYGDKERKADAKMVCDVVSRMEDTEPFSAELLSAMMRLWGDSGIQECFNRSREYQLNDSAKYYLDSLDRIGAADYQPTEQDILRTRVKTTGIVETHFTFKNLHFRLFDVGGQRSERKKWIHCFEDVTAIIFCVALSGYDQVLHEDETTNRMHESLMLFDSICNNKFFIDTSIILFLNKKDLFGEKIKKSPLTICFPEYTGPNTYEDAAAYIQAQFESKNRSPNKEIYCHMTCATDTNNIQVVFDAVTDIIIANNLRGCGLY
GALR2 ag: GALR2 receptor agonists, primary screen, cell-based. Galanin receptor type 2 (Homo sapiens), O43603. GALR2-expressing cells, agonist activation read-out. activation, %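 (tested at 5 µM)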. actives 0.48% (n = 140,000). AID 803, 2007;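 active = above mean plus 3 SD of all compounds, about 5% in these data, not always enough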;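 note: 0% = vehicle buffer wells and 100% = reference agonist at full effect; tested in CHO reporter cells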
Target sequence (O43603 whole entry, looked up): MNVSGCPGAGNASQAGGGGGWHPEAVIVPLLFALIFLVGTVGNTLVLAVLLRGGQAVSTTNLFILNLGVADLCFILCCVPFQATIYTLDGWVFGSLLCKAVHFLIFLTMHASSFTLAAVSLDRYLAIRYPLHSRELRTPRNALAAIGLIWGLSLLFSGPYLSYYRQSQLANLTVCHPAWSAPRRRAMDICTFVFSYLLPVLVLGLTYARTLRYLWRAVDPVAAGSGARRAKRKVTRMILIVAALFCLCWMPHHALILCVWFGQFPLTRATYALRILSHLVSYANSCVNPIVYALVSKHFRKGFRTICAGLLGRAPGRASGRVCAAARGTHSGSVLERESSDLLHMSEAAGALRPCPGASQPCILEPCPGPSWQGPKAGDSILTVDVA
PKD1 inh: inhibitors of human PKD1 kinase, biochemical, fluorescence polarization | AID 797, 2007 | Serine/threonine-protein kinase D1 (Homo sapiens), Q15139 | PKD1 kinase fluorescence polarization assay | actives 0.056% (n = 200,000) | inhibition, %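 (about 10 µM by stock and volumes)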;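 active = inhibition of 50% or more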;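 note: controls were vehicle for no effect and a reference inhibitor for full effect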
Insulin prom inh: inhibitors of insulin promoter-driven GFP, primary screen, imaging, TRM-6 cells (human fetal islet line), eGFP reporter, cell count. reporter expression induced with tamoxifen. inhibition, % at 2 µM. actives 0.9% (n = 130,000). AID 1273, 2008;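 active = inhibition above the mean plus 3 SD, with well images judged a real hit on visual review, cut at about 60% in these data, passing the limit was not always enough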
HSV replic up: enhancers of HSV replication in host cells, fold increase, host cell viability | HSV replication augmentation in cells | maximum fold increase | actives 0.005% (n = 220,000) | AID 1956, 2009;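 active = peak rise of 1.5-fold or more in the series; tested in PC3 cells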;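 note: first round at 10 µM; read as green reporter fluorescence; hits show the peak of a series up to 25 µM; 1 = signal of infected wells without compound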
Insulin prom inh cell count: also measured in Insulin prom inh; calls as there; normalized cell count, %; measured here: cell count, toxicity; reference of the scale not given here;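 cells exposed to compound for 48 h; stained nuclei by imaging scaled within each plate; lower means fewer cells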
HSV replic up primary fold: second read-out of HSV replic up, no call of its own (marks repeat the call); fold increase; compound at 10 µM; measured here: primary screen fold increase 10 uM; tested in PC3 cells;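 GFP signal in the first replicate; 1 = infected wells without compound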
Numbers without * were called inactive; i = inactive; / = no result given.

canonical_smiles	RGS16-Gao	GALR2 ag	PKD1 inh	Insulin prom inh	Insulin prom inh cell count	HSV replic up	HSV replic up primary fold
O=C(Nc1cccnc1)c1cc(-c2ccc3c(c2)OCO3)on1	99	-0.4	0	/	/	i	0.78
CC(C)Nc1nnc(SC(C)C(=O)NCc2ccc3c(c2)OCO3)s1 (configuration not stated)	103	/	3	/	/	i	0.98
O=C1c2cc(Cl)ccc2OC2(CCNCC2)C12CC(c1ccc(Cl)cc1)=NO2 (configuration not stated)	104	/	/	/	/	i	0.8
CCN(CC)S(=O)(=O)c1ccc(N/N=C(\C)c2ccc(OC)cc2O)nc1	95	/	/	/	/	i	0.63
COCCn1nnnc1C(c1ccccc1Cl)N1CCN(c2ccccc2OC)CC1 (configuration not stated)	112	-0.2	10	/	/	i	1.1
CC(C)(C)OC(=O)CN1C(=O)C(Sc2n[nH]c(-c3ccccc3)n2)CCc2ccccc21 (configuration not stated)	95	-3.0	2	-14	112	i	0.81
COc1ccc(-c2nc(N=Nc3ccc(O)cc3)n[nH]2)cc1	104	0.9	-5	/	/	i	0.83
CSc1cccc(CN2CCN(Cc3ccccc3)C(CCO)C2)c1 (configuration not stated)	95	/	1	/	/	i	0.95
COc1ccc(/C=C(/CC(=O)Nc2ccccc2)c2nc3ccccc3s2)cc1	18*	0.0	6	/	/	i	1.2
CCC(c1nnnn1C(C)(C)C)N(Cc1cccs1)Cc1cc2cc(C)c(C)cc2n2nnnc12 (configuration not stated)	/	-1.7	1	-7	63	i	0.92
O=C(NNS(=O)(=O)Cc1ccccc1)c1ccc([N+](=O)[O-])cc1	103	/	/	/	/	i	0.81
O=C(Nc1cccc(Cl)c1)NC1CCCCC1	100	-2.1	-2	/	/	i	1.1
CCCCOc1ccc(C2CC(=O)NC2=O)cc1 (configuration not stated)	104	-4.0	3	-3	136	i	0.85
Cc1cccc(NC(=S)N(C)C2(c3ccccc3Cl)CCCCC2=O)c1 (configuration not stated)	91	-4.4	-8	-22	32	i	1
COc1ccc(-c2c(=O)n(OCc3nc4ccccc4[nH]3)c3ccccc3[n+]2[O-])cc1	104	/	/	/	/	i	0.96
O=C(O)c1ccccc1C(=O)Nc1ccccc1	106	-1.7	-12	50	63	i	0.73
COc1cc2c(cc1OC)C(C(=O)N1CCN(c3ccccc3)CC1)C(c1cccs1)N(C)C2=O (configuration not stated)	100	-0.8	5	-18	31	i	0.93
NC(=O)Cn1c(=O)n(-c2ccccc2)c(=O)c2oc3ccccc3c21	77	/	-8	41	80	i	0.88
CC(/C=N/NC(=S)Nc1cccc(S(=O)(=O)N(C)C)c1)c1ccccc1 (configuration not stated)	103	-1.3	4	17	98	i	0.95
CCOC(=O)C1(CCOc2ccccc2)CCN(Cc2ccc3c(c2)OCCO3)CC1	108	/	6	/	/	i	0.83
Cn1c(=O)c(=O)n(C)c2cc(S(=O)(=O)NCCN3CCN(c4ccccc4F)CC3)ccc21	122	/	/	/	/	i	0.94
O=C(CSc1nc2nc(-c3cccs3)cc(C(F)(F)F)c2c(=O)[nH]1)Nc1c(F)c(F)c(F)c(F)c1F	95	/	7	/	/	i	1.1
COC(=O)CNC(=O)c1cccc(Cl)c1	101	/	-3	/	/	i	0.94
Cc1ccc(CN2CCC(C(=O)NCCC(C)C)CC2)o1	98	-1.4	13	/	/	i	0.99
CC1CN(S(=O)(=O)N2CCOCC2)CCN1S(=O)(=O)N1CCOCC1 (configuration not stated)	100	/	-3	/	/	i	0.97
CC(=O)c1c(C)n([O-])c2ccc(C)cc2[n+]1=O	101	-1.3	0	/	/	i	0.9
Nc1ccc2c(c1)Nc1ccccc1CC2	103	/	2	/	/	i	1.1
Cc1[nH]n(-c2ccc(F)cc2)c(=O)c1/C=N/c1sc2c(c1C#N)CCCC2	102	-1.7	-4	/	/	i	1
CN1C=C/C(=C\c2cc[n+](C)c3ccccc23)c2ccccc21	107	/	9	-175	19	i	0.75
CN(c1ccccc1C(=O)NC1CCCCC1)S(=O)(=O)c1ccccc1	101	/	4	14	103	i	0.89

Further results follow.
canonical_smiles	RGS16-Gao	GALR2 ag	PKD1 inh	Insulin prom inh	Insulin prom inh cell count	HSV replic up	HSV replic up primary fold
CN1CCN(c2ncnc3c2sc2nc(N4CCOCC4)c4c(c23)CCC4)CC1	/	1.8	-4	-26	186	/	/
COc1ccc(Cc2nnc(SCC(=O)NC(C)c3ccccc3)o2)cc1 (configuration not stated)	106	-1.6	-5	6	112	i	0.93
CCCCC(CCC(=O)Nc1ccccc1C(=O)OCC)C(=O)O (configuration not stated)	101	-2.2	-3	-29	93	i	0.93
Cc1nc(C(F)(F)F)nc(Nc2ccc(N=Nc3ccccc3)cc2)c1C#N	106	0.3	10	/	/	i	1.1
O=C(Nc1ccncc1)c1cc(-c2ccccn2)nc2ccc(Br)cc12	96	/	2	/	/	i	1
Cc1ccc(C(=O)CC2(O)C(=O)N(C)c3ccc(Br)cc32)c(C)c1 (configuration not stated)	102	-3.6	12	/	/	i	1
COc1ccc(Cl)cc1NC(=O)C(C)N1CCc2ccccc21 (configuration not stated)	100	/	-3	-47	59	i	1.1
C/C(CC(=O)Nc1cccnc1)=N/NC(=O)COc1ccc(Cl)cc1Br	96	/	/	/	/	i	0.95
Oc1ccc(CNC2CCCCC2)cc1	47	-1.7	16	6	65	i	0.91
Cc1ccc2nc(-c3ccc(O)cc3)c(Nc3ccc4c(c3)OCCO4)n2c1	96	1.4	-19	/	/	i	0.9
CCC(C)NC(=O)CN(C1CCCCC1)S(C)(=O)=O (configuration not stated)	96	/	-2	/	/	i	0.9
COC(=O)C(Cc1cnc(Cl)s1)(C(=O)OC)c1ccc([N+](=O)[O-])cc1	97	-2.2	-4	i	56	i	1
CCOc1ccc(N2CC(C(=O)NC3=NCCS3)CC2=O)cc1 (configuration not stated)	192	/	-2	/	/	i	0.84
Cn1c(-c2ccc3c(c2)OCO3)cnc1NC(=O)CCC(=O)NCCc1ccccc1	101	-0.4	0	/	/	i	0.76
COc1cc2c(C(=O)Nc3ccc4c(c3)OCO4)cn(CC(C)C)c(=O)c2cc1OC	105	-1.9	-7	3	117	/	/
O=C(NCCCn1ccnc1)c1ccco1	170	-1.5	-3	34	104	i	1
Cc1ccnn1CC(=O)N/N=C/c1ccc([N+](=O)[O-])s1	97	/	/	/	/	i	0.79
Cc1cc2ccccn2c1C(=O)c1nc(NCc2ccccc2)ncc1Cl	110	/	-5	0	93	i	1.2
O=C(CSc1nc(-c2ccccc2)c(-c2ccccc2)o1)N1CCOCC1	100	-0.5	-6	6	96	i	0.87
CCOC(=O)Cc1csc(NC(=O)c2ccncc2)n1	132	-2.4	2	-9	141	i	1.1
Clc1ccc(N2COC3c4cccc5cccc(c45)C32)cc1 (configuration not stated)	48	-1.2	-2	5	106	i	0.84
CCCCN(CC)C(=O)/C=C/c1cccc([N+](=O)[O-])c1	101	-1.2	-7	-21	135	i	0.96
COc1ccc(NC(=O)C2CCCN(S(=O)(=O)c3ccc4c(c3)oc(=O)n4C)C2)c(OC)c1 (configuration not stated)	104	-2.2	-9	/	/	i	0.91
Cc1ccc(CN(C(=O)c2csnn2)C(C(=O)NC2CCCC2)c2ccc(C)o2)cc1 (configuration not stated)	33	-2.5	-1	-55	126	i	1.1
S=c1[nH]c(-c2ccccc2)cn1/N=C/c1ccccc1Br	84	/	-4	/	/	i	0.78
COC(=O)CC(C(=O)Nc1cc(C(=O)OC)cc(C(=O)OC)c1)N1CCN(C)CC1 (configuration not stated)	/	-3.7	0	-37	200	/	/
Cc1ccc(S(=O)(=O)N(CC(=O)N2CCCC2)C2CCCCC2)cc1	95	-1.0	-1	62	131	i	0.96
Nc1nc(C23CC4CC(CC(C4)C2)C3)cs1	107	-0.1	-4	7	77	i	0.78
COC(=O)Nc1ccc(S(=O)(=O)N2CCCC(C(=O)Nc3cccc4c3OCCO4)C2)cc1 (configuration not stated)	101	-2.2	-6	5	129	i	0.88
COCCCNC(=O)c1cc2cc([N+](=O)[O-])cc(OC)c2oc1=O	101	/	7	/	/	i	0.84

A second format for part of the listing above:
Under each structure – RGS16-Gao | GALR2 ag | PKD1 inh | Insulin prom inh | Insulin prom inh cell count | HSV replic up | HSV replic up primary fold
COc1cc2c(C(=O)Nc3ccc4c(c3)OCO4)cn(CC(C)C)c(=O)c2cc1OC
 : 105 | -1.9 | -7 | 3 | 117 | / | /
O=C(NCCCn1ccnc1)c1ccco1
 : 170 | -1.5 | -3 | 34 | 104 | i | 1
Cc1ccnn1CC(=O)N/N=C/c1ccc([N+](=O)[O-])s1
 : 97 | / | / | / | / | i | 0.79
Cc1cc2ccccn2c1C(=O)c1nc(NCc2ccccc2)ncc1Cl
 : 110 | / | -5 | 0 | 93 | i | 1.2
O=C(CSc1nc(-c2ccccc2)c(-c2ccccc2)o1)N1CCOCC1
 : 100 | -0.5 | -6 | 6 | 96 | i | 0.87
CCOC(=O)Cc1csc(NC(=O)c2ccncc2)n1
 : 132 | -2.4 | 2 | -9 | 141 | i | 1.1
Clc1ccc(N2COC3c4cccc5cccc(c45)C32)cc1 (configuration not stated)
 : 48 | -1.2 | -2 | 5 | 106 | i | 0.84
CCCCN(CC)C(=O)/C=C/c1cccc([N+](=O)[O-])c1
 : 101 | -1.2 | -7 | -21 | 135 | i | 0.96
COc1ccc(NC(=O)C2CCCN(S(=O)(=O)c3ccc4c(c3)oc(=O)n4C)C2)c(OC)c1 (configuration not stated)
 : 104 | -2.2 | -9 | / | / | i | 0.91
Cc1ccc(CN(C(=O)c2csnn2)C(C(=O)NC2CCCC2)c2ccc(C)o2)cc1 (configuration not stated)
 : 33 | -2.5 | -1 | -55 | 126 | i | 1.1
S=c1[nH]c(-c2ccccc2)cn1/N=C/c1ccccc1Br
 : 84 | / | -4 | / | / | i | 0.78
COC(=O)CC(C(=O)Nc1cc(C(=O)OC)cc(C(=O)OC)c1)N1CCN(C)CC1 (configuration not stated)
 : / | -3.7 | 0 | -37 | 200 | / | /
Cc1ccc(S(=O)(=O)N(CC(=O)N2CCCC2)C2CCCCC2)cc1
 : 95 | -1.0 | -1 | 62 | 131 | i | 0.96
Nc1nc(C23CC4CC(CC(C4)C2)C3)cs1
 : 107 | -0.1 | -4 | 7 | 77 | i | 0.78
COC(=O)Nc1ccc(S(=O)(=O)N2CCCC(C(=O)Nc3cccc4c3OCCO4)C2)cc1 (configuration not stated)
 : 101 | -2.2 | -6 | 5 | 129 | i | 0.88
COCCCNC(=O)c1cc2cc([N+](=O)[O-])cc(OC)c2oc1=O
 : 101 | / | 7 | / | / | i | 0.84

(cont.)
canonical_smiles	RGS16-Gao	GALR2 ag	PKD1 inh	Insulin prom inh	Insulin prom inh cell count	HSV replic up	HSV replic up primary fold
Cc1ccc(S(=O)(=O)CC(CN2CCCCC2)N2CCCCC2)cc1 (configuration not stated)	98	/	0	0	75	i	0.58
CCC(C)[C@H](NC(=O)NCc1ccccc1Cl)C(=O)OC (some centres not stated)	100	-0.1	-8	-41	83	i	0.97
COc1cc2c(cc1OC)C(C)N(C(=O)c1sc(-c3cnccn3)nc1C)CC2 (configuration not stated)	90	/	/	/	/	i	0.81
O=C(CCCOc1ccccc1)NCC1CCCO1 (configuration not stated)	100	-0.4	-2	-64	107	i	1.1
CC1(C)CC(=O)C2=C(C1)OC(N)=C(C#N)C21CCC2(CC1)OCCO2	103	-1.8	0	/	/	i	1.2
O=C(NCCc1ccccc1)Nc1cccc(Cl)c1	100	-2.2	-4	27	77	i	0.94
O=C(c1ccco1)N1CCN(C(=O)c2[nH]ncc2[N+](=O)[O-])CC1	96	-1.4	-4	-12	70	i	1.1
Cc1ccc([N+](=O)[O-])cc1-c1ccc2cccc(C)c2n1	115	-1.4	-15	8	52	i	0.92

Looked up above:
O=C(NCCc1ccccc1)Nc1cccc(Cl)c1 @ HSV replic up primary fold: 0.94
O=C(CCCOc1ccccc1)NCC1CCCO1 (configuration not stated) @ Insulin prom inh cell count: 107
